H5N1 CPE: MDCK cell protection from H5N1 avian flu; AID 740, 2007; cytopathic effect, luminescence, 72 h; active compounds read high; no value below 0 was filed and about half of the inactive calls have no number; reference of the scale not given here; inhibition, % at 50 µM; hit rate 0.07% among 96,000; in the data active = inhibition above about 25%
Starred values were filed as active, the others as inactive; i = inactive. Some of the compounds tested; rates above refer to the full screens.

Sample of the layout:
SMILES | H5N1 CPE
CCCOC(=O)c1c(NC(=O)CSc2nc(-c3ccco3)cc(C(F)(F)F)n2)sc(C(=O)OC)c1C | i
O=C(Cc1ccc(F)cc1)Nc1ccc(F)c([N+](=O)[O-])c1 | i

The listing, from the first entry:
SMILES | H5N1 CPE
CCCOC(=O)c1c(NC(=O)CSc2nc(-c3ccco3)cc(C(F)(F)F)n2)sc(C(=O)OC)c1C | i
O=C(Cc1ccc(F)cc1)Nc1ccc(F)c([N+](=O)[O-])c1 | i
Cc1cccc(CN2CCC(C(N)=O)CC2)c1 | 0.9
CC1CCCCN1CCNC(=O)C1CC(=O)N(c2ccc(F)c(Cl)c2)C1 (stereo not drawn) | i
COc1cc2c(cc1NC(=O)CSCC(=O)O)oc1ccccc12 | i
Cc1cc(-n2ccc(=O)[nH]c2=O)nc(-c2ccccc2)n1 | 0.7
CC(C)(C)n1nnnc1C(c1ccccc1)N1CCc2ccccc2C1 (stereo not drawn) | i
CCN1/C(=C/c2ccc3cccc(C)c3[n+]2CC)Sc2ccccc21 | i
COc1ccc(NC(=O)CSc2nncs2)cc1OC | 0.8
COc1cccc(/C=C2/CN(C)CC3=C2OC(N)=C(C#N)C3c2cccc(OC)c2)c1 (stereo not drawn) | i
COc1ccc(OCC(O)Cn2c(=N)n(CCN3CCCCC3)c3ccccc32)cc1 (stereo not drawn) | i
Cc1ccc(S(=O)(=O)N2CCCC2C(=O)O)cc1 (stereo not drawn) | 0.8

Next section; the last 7 above are carried over.
SMILES | H5N1 CPE
Cc1cc(-n2ccc(=O)[nH]c2=O)nc(-c2ccccc2)n1 | 0.7
CC(C)(C)n1nnnc1C(c1ccccc1)N1CCc2ccccc2C1 (stereo not drawn) | i
CCN1/C(=C/c2ccc3cccc(C)c3[n+]2CC)Sc2ccccc21 | i
COc1ccc(NC(=O)CSc2nncs2)cc1OC | 0.8
COc1cccc(/C=C2/CN(C)CC3=C2OC(N)=C(C#N)C3c2cccc(OC)c2)c1 (stereo not drawn) | i
COc1ccc(OCC(O)Cn2c(=N)n(CCN3CCCCC3)c3ccccc32)cc1 (stereo not drawn) | i
Cc1ccc(S(=O)(=O)N2CCCC2C(=O)O)cc1 (stereo not drawn) | 0.8
C=CCSc1nnc2c(n1)OC(c1c(C)[nH]n(-c3ccccc3)c1=O)Nc1ccccc1-2 (stereo not drawn) | 0.7
CCOc1ccccc1N1C(=O)CC(N(O)c2ccccc2)C1=O (stereo not drawn) | i
Cc1ccc(CC(=O)NCc2ccc3c(c2)OCO3)cc1 | 0.5
Nc1c2c(=O)oc(-c3ccccc3)cc2nn1-c1ccccc1 | i
COc1ccc(-c2ccnc3nc(N4CCN(c5ccccc5)CC4)nn23)cc1 | i
CCOC1(OCC)C(c2ccc(Cl)cc2)C(C#N)(C#N)C1(OCC)OCC (stereo not drawn) | 9.8
Cc1nc2nc3c(cn2n1)C(=O)CC(c1ccccc1)C3 (stereo not drawn) | 1.0
Cc1ccc(Nc2nnns2)cc1 | 0.6
COc1ccc(NC(=O)C23CCC(C2)C(C)(C)C3=O)cc1 (stereo not drawn) | 0.8
CCCCn1c(N)c(C(=O)NCc2cccs2)c2nc3ccccc3nc21 | i
FC(F)(F)c1cc(-c2ccco2)nc(-n2nc(C(F)(F)F)cc2C2CC2)n1 | 0.3
Cc1ccc(Cn2ccc(NC(=O)CCSc3nc(-c4ccco4)cc(C(F)(F)F)n3)n2)cc1 | i

5 records picked at random from those above, as already listed:
SMILES | H5N1 CPE
COc1ccc(-c2ccnc3nc(N4CCN(c5ccccc5)CC4)nn23)cc1 | i
FC(F)(F)c1cc(-c2ccco2)nc(-n2nc(C(F)(F)F)cc2C2CC2)n1 | 0.3
COc1ccc(NC(=O)C23CCC(C2)C(C)(C)C3=O)cc1 (stereo not drawn) | 0.8
Nc1c2c(=O)oc(-c3ccccc3)cc2nn1-c1ccccc1 | i
CCCCn1c(N)c(C(=O)NCc2cccs2)c2nc3ccccc3nc21 | i

Next part
SMILES | H5N1 CPE
N#Cc1cn(-c2ccccc2)nc1-c1ccccc1 | 0.7
C=CCNC(=O)CN(c1ccccc1OCC)S(=O)(=O)c1ccc(C)cc1 | i
CC(C)(C)c1ccc(NC(=O)COC(=O)C2=COCCO2)cc1 | i
O=C(Nc1ccccc1)N1CCC(c2nc(-c3ccc(S(=O)(=O)N4CCOCC4)cc3)no2)CC1 | i
CCOC(=O)c1ccc2c(c1)nc(COc1ccc(OC)cc1)n2CC | 0.6
Cc1ccc(CNC2=NCCCCC2)n1C | 0.2
CC[n+]1ccc(C)c2cc(S(=O)C(F)(F)F)ccc21 (stereo not drawn) | i
CCC(C)NC(=O)c1ccc(CS(=O)(=O)Cc2ccc(Cl)cc2)o1 (stereo not drawn) | i
COC(=O)c1cc(NC(=O)Cc2ccc(OC)cc2)cc(C(=O)OC)c1 | 0.3
O=C(OCc1ccccc1)N1CCOCCOCCN(C(=O)OCc2ccccc2)CCOCCOCC1 | 1.8
CC1(C)CC(=O)C(C(=O)CCCCC(=O)C2C(=O)CC(C)(C)CC2=O)C(=O)C1 | 1.6
Nc1nc(N2CCOCC2)nc(N(c2ccccc2)c2ccccc2)n1 | 1.5
CC(C)OC(=O)C(CC(=O)O)NCc1ccccc1 (stereo not drawn) | 0.5
CCN(CC)C(=O)c1cc2c(=O)n3cccc(C)c3nc2n1C | 0.4
COc1cc(C)c(S(=O)(=O)N2CCN(C)CC2)cc1C | 1.1
CN(C)c1ccc(C(=S)N2CCN(c3ccccc3)CC2)cc1 | 0.2
O=C(CSc1ncn(-c2ccccc2)n1)c1cccs1 | i
Nc1ccc(Cc2nc3c(ccc4ccccc43)[nH]2)cc1 | 5.1
CCN1C(=O)C(O)(CC(=O)/C=C/C=C/c2ccccc2)c2ccccc21 (stereo not drawn) | i
Cc1ccccc1OCC(=O)NCCN(C)C | 0.4
COCc1[nH]nc2c1C1(CCSCC1)C(C#N)=C(N)O2 | i
Cc1cccc(-n2ncc3c(NCc4ccc5c(c4)OCO5)ncnc32)c1 | i
CCN(CC)S(=O)(=O)c1ccc(-c2nnc(SCC(=O)c3ccc(OC)cc3)o2)cc1 | 0.3
Cc1ccc(CC2CC(=O)N(c3ccncc3)C2=O)cc1 (stereo not drawn) | 0.9
CCOCC(=O)Nc1cccc(NC(C)=O)c1 | 0.1
COc1cccc(C2=CC(c3ccc(N(C)C)cc3)n3ncnc3N2)c1 (stereo not drawn) | 0.1
COc1ccccc1S(=O)(=O)Nc1cccc(-c2nnc3n2CCCCC3)c1 | 0.1
Cc1c(N=Cc2ccncc2)c(=O)n(-c2ccccc2)n1C | i
COCCN(C(=O)CCC(=O)Nc1ccccn1)C(C(=O)NC1CCCC1)c1ccc(OC)cc1 (stereo not drawn) | i
O=C(NCCCCO)C(F)(F)C(F)(F)C(F)(F)C(=O)NCCCCO | 0.3
CCN(CC)CCNC(=O)c1ccc(CS(=O)(=O)c2ccc(Br)cc2)o1 | 0.3
CN(C)c1ccc(CNn2cnnc2)cc1 | i
Cc1ccc(S(=O)(=O)N2CCOCC2)cc1NC(=O)Cn1ccsc1=N | i
Cc1ccc2c(c1)[nH]c1c(=O)n(CCCN3CCOCC3)cnc12 | 0.6
COc1ccc(-c2cnn(C3CCS(=O)(=O)C3)c2N)cc1 (stereo not drawn) | i
CCOC(=O)C1CCN(c2nc3ccccc3nc2C(C#N)C(=O)OC(C)COC)CC1 (stereo not drawn) | i
C=CCN1C(=O)/C(=C\c2ccc(Cl)cc2)N=C1SCC(=O)NCCC | i
CC(C)[C@H](NC(=O)OC(C)(C)C)C(=O)N/N=C/c1cccc2nccnc12 | 1.2
COc1ccc(CCNC(=O)C2CCCN(S(=O)(=O)c3cccc4nonc34)C2)cc1OC (stereo not drawn) | 0.3
CCCC(c1nnnn1Cc1ccco1)N1CCN(C2CCCC2)CC1 (stereo not drawn) | i
Cc1csc(NC(=O)CSc2nnc(-c3ccoc3C)n2Cc2ccco2)n1 | 0.4
Cc1cc(=O)[nH]c(-c2ccccc2O)n1 | 1.1
COc1ccc(C2Nc3ccccc3C(=O)N2c2ccc(C)cc2)cc1Cn1nc(C)c([N+](=O)[O-])c1C (stereo not drawn) | i
CCOC(=O)Nc1sc(C(=O)N(CC)CC)c(C)c1C(=O)OCC | i
Cc1ccc2c(c1)nnn2C1CCN(S(=O)(=O)c2cccc(S(=O)(=O)N(C)C)c2)CC1 | 7.0
CO/N=C(/CNC(=O)c1ccccc1Cl)c1ccc(Cl)cc1 | i
CSCCC(NC(N)=O)C(=O)NCc1ccccc1Cl (stereo not drawn) | i
CC(=O)N1CSCC1C(=O)N1CCN(c2ccc(N3CCOCC3)nn2)CC1 (stereo not drawn) | 1.0
Cc1cc(O)c(C(C)C)cc1NC(=O)c1cccc(Cl)c1 | i
N/C(=N\OC(=O)c1ccco1)c1cccc(Br)c1 | i
O=C(c1cc2n(n1)C(C(F)(F)F)CC(c1ccco1)N2)N1CCc2ccccc2C1 (stereo not drawn) | 1.0
COC(=O)Cc1cc(=O)n2[nH]c(C(F)(F)F)nc2n1 | i
CCN1CCCC1CNC(=O)Cn1cc2c(n1)CCC(C)C2 (stereo not drawn) | 0.1
O=C(O)c1ccc2nc(CO)[nH]c2c1 | i
O=C(NCCSc1c[nH]c2ccccc12)c1ccco1 | 0.7
Nc1ccnn1C1CCNCC1 | i
CC(CNS(=O)(=O)c1cc(Cl)ccc1Cl)CN(C)C (stereo not drawn) | i
O=C(CSc1nc2ccccc2c(=O)n1-c1ccc(F)cc1)NCc1ccco1 | i
Cc1ccccc1Cn1nc(C)c(NC(=O)c2nc3n(n2)C(C(F)F)CC(C)N3)c1C (stereo not drawn) | i
Cc1occc1-c1nnc(SCC(=O)N2CCc3ccccc32)o1 | i

More results.
SMILES | H5N1 CPE
O=C(CCCC(=O)N(c1ccc2c(c1)OCCO2)C(C(=O)NC1CCCCC1)c1ccc(F)cc1)Nc1ccccn1 (stereo not drawn) | 0.5
COc1cccc2c(=O)cc(C)n(CC(=O)Nc3ccccc3C)c12 | 0.2
COc1ccc(S(=O)(=O)N2CCCC(C(=O)Nc3cccnc3)C2)cc1Cl (stereo not drawn) | 5.3
CCOC(=O)C1=C(C)NC(=O)NC1c1ccc(OC)c(Cl)c1 (stereo not drawn) | 0.9
COc1ccc(C(=O)/C=C/N(C)C)cc1OC | 0.2
CC(C)c1ccc(C2C3CSCC=C3C(C#N)=C(N)C2(C#N)C#N)cc1 (stereo not drawn) | 0.3
CCOC(=O)CC(=O)CSc1nc2cc(C)ccc2cc1C | 0.5
COc1cccc(-n2c(=O)[nH]cc(C(=O)Nc3ccc(NC(C)=O)cc3)c2=O)c1 | 1.6
Cc1ccc(CN2CCN(/N=C/c3cc([N+](=O)[O-])ccc3Cl)CC2)cc1 | 0.7
Cc1ccc(Cn2nnc3c(=O)[nH]c(C4CCCN(S(=O)(=O)c5ccccc5)C4)nc32)cc1 (stereo not drawn) | 3.2
Cc1nn(C)c(Oc2ccc(Cl)cc2)c1C(=O)Nc1ccc(F)cc1F | i
CCCCN(CCCNC(=O)C1CCN(S(=O)(=O)N2CCOCC2)CC1)Cc1ccccc1 | i

A different layout for 2 compounds above.
SMILES	H5N1 CPE
CCCCN(CCCNC(=O)C1CCN(S(=O)(=O)N2CCOCC2)CC1)Cc1ccccc1	i
CCOC(=O)C1=C(C)NC(=O)NC1c1ccc(OC)c(Cl)c1 (stereo not drawn)	0.9

Going on with the list.
SMILES | H5N1 CPE
Cc1noc(C)c1C(=O)Nc1ccc(F)c(F)c1 | i
CCOc1c2ccc(C(=O)N[C@H](C)C3CCCCC3)cc2nn1CCOC | i
CC(CN1CCCCC1)OC(=O)Cc1ccc(Cl)cc1 (stereo not drawn) | i
Cc1csc(=NC(=O)c2ccccc2)n1CCO | i
CCOCC(=O)Nc1ccc(F)c(F)c1 | i
Cc1ccc(C)c(N2C(=O)CN=C2Nc2ccccc2Cl)c1 | 0.9
CCOc1ccc(N(CC(=O)O)S(=O)(=O)c2ccc(F)cc2)cc1 | i
Cc1ccc(-c2ccc(/C=C3\C(=O)ON=C3c3ccccc3)o2)c([N+](=O)[O-])c1 | 0.2
COc1ccc(CSc2nnnn2C)cc1F | 1.0
COCCCNS(=O)(=O)c1ccc(Oc2ncc(C(F)(F)F)cc2Cl)cc1 | i
CN(C(=O)c1cccc(C#N)c1)c1nnc(-c2cnccn2)s1 | i
Cc1n[nH]c(C)c1S(=O)(=O)N1CCN(C2CCCCC2)CC1 | 0.3
Cc1ccc2[nH]c3c(=O)n(Cc4ccccn4)cnc3c2c1 | i
Cc1cc2ccccc2c(=O)n1CC(=O)NCC(=O)N1CCN(c2ccccc2)CC1 | 1.2
COCCNC(=O)C(C)Oc1ccc(Cl)cc1Cl (stereo not drawn) | i
COc1ccccc1NC(=O)CSc1nc2ccccc2n1C(C)=O | i
CC(C)OCCCNC(=O)C(C)Oc1ccccc1 (stereo not drawn) | 1.3
Cc1ccc(-n2c(N)c(C#N)c(-c3ccccc3)c(C#N)c2=O)cc1 | i
O=C(COc1ncnc2ccc(Br)cc12)N1CCOCC1 | i
Clc1ccc(COc2ccccn2)c(Cl)c1 | i
COc1ccc(CNC(C)C2COc3ccccc3O2)c(OC)c1 (stereo not drawn) | i
CCOC(=O)Cc1cc(OC)c(OC)cc1Cc1cc(OC)c(OC)cc1CC(=O)OCC | 1.6
Cc1cc(NC(=O)CN2CCN(S(=O)(=O)c3ccc(Cl)cc3)CC2)no1 | i
CN1C(=O)N(C)C2C1NC(=O)N2C (stereo not drawn) | 0.5
CC(C)C(=O)Nc1ccc(N2CCN(S(C)(=O)=O)CC2)cc1 | i
CCc1ccc(S(=O)(=O)NCCc2cn3ccccc3n2)s1 | 1.0
CC(C)(Oc1ccc(-c2ccco2)cc1)C(=O)O | 0.4
COCCNC(=O)CN1c2ccccc2CC1C (stereo not drawn) | i
Cc1ccc2cc3c(nc2c1)N(Cc1ccco1)CC3 | 1.6
CCOc1ccc(NC(=O)C2CCCN(S(=O)(=O)c3c(C)nn(C)c3C)C2)cc1 (stereo not drawn) | 0.3
O=C(Nc1ccc2c(c1)OCCO2)C1CCCN(c2ncccn2)C1 (stereo not drawn) | 1.1

High-throughput results as filed in PubChem.
